2A StopGo: lowers the luciferase signal of an FMDV 2A StopGo reporter; 1.2% of 410,000 active; Potency, µM (highest dose often 57.9 µM), for inactives: top-dose signal change, negative = less light; human cells with a luciferase reporter of 2A StopGo recoding; control for the full effect not named in the record; active = well fitted falling curve with a large enough effect; inconclusive = small, poorly fitted or top-dose-only effect; inactive = no such curve, though single readings can be large or run the other way; tested in HEK293T cells; note: % is set by controls: 0 for no effect and ±100 for the full control effect; nearly all actives have a fitted effect of over 45% in size; luciferase light after 4 h
Lassa entry inh: Lassa virus entry inhibition. Lassa virus pseudotype entry inhibition, cell reporter; control for the full effect not named in the record. 1.2% of 300,000 active. Potency, µM (series often up to 37.9 µM), for the others: at the highest dose activity change, negative = inhibition, usual class: inhibitors. AID 540256; active means well fitted inhibition curve with a large enough effect; inconclusive means small, poorly fitted or top-dose-only effect, or effect the other way; inactive means flat fitted curve, though single readings scatter; tested in HEK293 cells; note: % is set by controls: 0 for no effect and ±100 for the full control effect; nearly all actives have a fitted effect of over 50% in size; luciferase read-out
Cruzain inh noDet: blocks cruzain activity in detergent-free assay; purified cruzain, Z-FR-AMC fluorescence, no detergent; 2.3% of 200,000 active; P25779; Potency, µM, for inactives: max response, negative = inhibition, usual class: inhibitors; active = well fitted curve in the direction sought with a large enough effect; inconclusive = small, poorly fitted or top-dose-only effect, or another doubt; inactive = no such curve, though single readings can be large; an effect the other way counts as inactive or inconclusive;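 note: plate controls were enzyme without inhibitor for no effect and buffer without enzyme for full effect; nearly all actives have a fitted effect of over 40% in size; top concentration of the series not given in the record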
Target sequence (P25779 123-467 limits assumed): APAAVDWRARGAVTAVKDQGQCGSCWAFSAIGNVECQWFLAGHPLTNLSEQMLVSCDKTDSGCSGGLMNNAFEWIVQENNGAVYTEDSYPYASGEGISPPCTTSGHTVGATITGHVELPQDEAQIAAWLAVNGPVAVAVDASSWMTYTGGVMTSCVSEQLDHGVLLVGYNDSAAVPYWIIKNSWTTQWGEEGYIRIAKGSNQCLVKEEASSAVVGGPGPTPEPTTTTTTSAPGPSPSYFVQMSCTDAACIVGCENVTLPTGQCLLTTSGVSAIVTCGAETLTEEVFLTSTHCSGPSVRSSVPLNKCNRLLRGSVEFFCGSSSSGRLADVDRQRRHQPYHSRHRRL
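Purified cruzain at 1.5 nM, pre-incubated 15 min with compound at room temperature in 100 mM sodium acetate pH 5.5, 5 mM DTT, 0.00005% Triton X-100. Reaction started with 2 uM Z-FR-AMC; AMC fluorescence increase over 60 s gives rate.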
Marburg entry inh: inhibitors of Marburg virus binding or cell entry | Marburg virus pseudotyped entry inhibition, cell reporter; control for the full effect not named in the record; about a third of the inactives were read at about 46 µM | 1.8% of 300,000 active | Potency, µM (highest dose often 37.8 µM), for the others: at the highest dose activity change, negative = inhibition, most hits filed as inhibitors; active = well fitted inhibition curve with a large enough effect; inconclusive = small, poorly fitted or top-dose-only effect, or effect the other way; inactive = flat fitted curve, though single readings scatter; tested in HEK293 cells; about a fifth of its hits are not listed in these tables; note: % is set by controls: 0 for no effect and ±100 for the full control effect; luciferase read-out
SARS PLpro yeast: blocks SARS-CoV papain-like protease in a yeast assay | Potency, µM (doses to about 32.9 µM), inactives show at the top dose activity, positive = growth rescue | AID 485353 | 0.19% of 330,000 active | S. cerevisiae expressing SARS-CoV PLpro, growth rescue; control for the full effect not named in the record; note: 0% is about no effect; nearly all actives have a fitted effect of over 55% in size; growth read by luminescence after 48 h
Cruzain inh Det: inhibitors of Trypanosoma cruzi cruzain with detergent. 0.43% of 200,000 active. AID 1478. Potency, µM, inactives show max response, negative = inhibition, actives largely listed as inhibitors. purified cruzain, Z-FR-AMC fluorescence, 0.01% Triton; active = well fitted curve in the direction sought with a large enough effect; inconclusive = small, poorly fitted or top-dose-only effect, or another doubt; inactive = no such curve, though single readings can be large; an effect the other way counts as inactive or inconclusive;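 note: plate controls were neutral wells for no effect and buffer without enzyme for full effect; nearly all actives have a fitted effect of over 40% in size; top concentration of the series not given in the record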
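Detergent-containing run (0.01% Triton X-100) in acetate buffer pH 5.5 with 5 mM DTT: enzyme at 1.5 nM final, 15 min compound preincubation at room temperature, then 2 uM Z-FR-AMC substrate. Activity taken as 60 s fluorescence increase at 360/450 nm.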
NS1 function inh: influenza NS1 inhibition. 0.4% of 270,000 active. Potency, µM (top dose mostly 46.1 µM), for the others: top-dose activity, positive = more growth. S. cerevisiae slowed by influenza A NS1, growth recovery by OD600; note: actives are rising curves; nearly all actives have a fitted effect of over 50% in size
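In this qHTS, NS1 from influenza A is expressed in budding yeast, where it slows growth. Cells are switched from glucose to 2% galactose medium (pH 6.0, -URA), treated with compound, and growth recovery is read at OD600.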
RE007 growth inh: less growth of the S. pombe RE007 Vpr strain; S. pombe RE007 Vpr strain, BacTiter-Glo ATP luminescence, 24 h; control for the full effect not named in the record; Potency, µM (titrated, usually from 92.2 µM), for inactives: at the highest dose activity change, negative = less growth; 0.21% of 360,000 active; AID 651644; active = well fitted falling curve with a large enough effect; inconclusive = small, poorly fitted or top-dose-only effect; inactive = no such curve, though single readings can be large or run the other way;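 note: % is set by controls: 0 for no effect and ±100 for the full control effect; nearly all actives have a fitted effect of over 50% in size; the assay follows cell death caused by Vpr and the record does not say whether a fall means rescue or toxicity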
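Fission yeast strain RE007, carrying one chromosomally integrated HIV-1 vpr copy, was seeded at OD 0.01 in PMG+AL medium with 23 nL pinned compound. After 24 h at 30 °C and 99% humidity, viability was read by BacTiter-Glo luminescence.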
Active calls of the source: *; u = inconclusive; x = not tested or not shown; & = joins results of further samples; [ ] = remark or other dose. Unless noted, calls come from the whole dose curve; as a rule, active means well fitted rising curve with a large enough effect; inconclusive means small, poorly fitted or top-dose-only effect; inactive means no such curve, though single readings can be large or run the other way. Potency is the fitted concentration of half-maximal effect.

Results follow in this order: RE007 growth inh | Cruzain inh noDet | Marburg entry inh | 2A StopGo | SARS PLpro yeast | NS1 function inh | Lassa entry inh | Cruzain inh Det
O=C(c1ccc2c(c1)OCO2)C1CCCN(Cc2c(F)ccc(F)c2F)C1 (stereo unspecified)
    -6% | x | -10%[46.1 µM] | -8% | 12% | -18% | 15%[46.1 µM] | x
CCOC(=O)c1c(NC(=O)CN2CCCCC2)sc2c1CCN(C(=O)OCC)C2
    1% | -7% | u | x | 7% | -31% | u | -0.9%
CCc1ccc(CNC(=O)C2CC(=O)N(CCc3ccc(C)cc3)C2)cc1 (stereo unspecified)
    14% | u | 8% | -11% | -3% | -18% | -35%[14.3 µM] | -2.3%
CC(=O)Nc1ccc(NC(=O)C(C)Sc2nnc(-c3cccs3)o2)cc1 (stereo unspecified)
    8% | x | -7% | -14% | -1% | 0% | x | x
CCOc1cc(C(=S)N2CCCCC2)ccc1OCC(=O)NCc1ccccc1
    14% | 2% | u | 9% | 4% | 5% | -12% | 1.6%
COc1ccc(C)cc1N(C(=O)c1ccc(F)cc1)c1nc2ccccc2s1
    9% | u | -40% | -20% | -26% | -5% | -9% | -3.2%
CCN(CC)C(=O)CSc1nnc(-c2ccccc2)n1N
    11% | 10% | 29% | 10% | 6% | 6.3µM* | -2% | 2.9%
CN(CCCC(=O)NCc1ccco1)S(=O)(=O)c1ccccc1
    -9% | 7% | 26% | 14% | 1% | 2% | 13% | 5.1%
CN1CCN(c2ccc(NC(=O)c3ccc4c(c3)OCCO4)cc2)CC1
    -6% | x | u | 15% | 0% | 5% | -1% | x
COc1c(Cl)cc(Cl)cc1/C=C/C(=O)c1ccc(NC(=O)c2cccs2)cc1
    u | 32µM* | 11µM* | 0% | 1% | 8% | u | -2.8%
CC(=O)Nc1ccc(NS(=O)(=O)c2ccc(C)cc2)c([N+](=O)[O-])c1
    1% | x | -6%[46.1 µM] | -6% | 0% | -2% | 7% | x
C=CCc1cc(Cl)ccc1OCCN1CC(C)OC(C)C1 (stereo unspecified)
    -4% | x | 2%[46.1 µM] | u | -1% | 3% | 10% | x
O=C(Nc1ccccc1Br)C(Cc1ccccc1)NS(=O)(=O)c1cccc2nsnc12 (stereo unspecified)
    x | u | u | 5% | x | x | u | -6.1%
O=C(Nc1ccc(Cl)c([N+](=O)[O-])c1)ONC1=NCCCCC1
    -14% | x | 4%[46.1 µM] | -9% | -5% | 4% | u | x
CC(C)c1c(C(=O)N/N=C/c2ccc(OCc3ccc(F)cc3)cc2)nnn1-c1nonc1N
    10% | x | x | -19% | -17% | -44% | x | x
COC(=O)c1ccccc1NC(=O)N(Cc1ccc(C)cc1)Cc1cccn1-c1nnc(N2CCCC2=O)s1
    x | -4% | 9%[46.1 µM] | 13% | x | x | x | 0.7%
O=C1CSC(c2nn(-c3ccccc3)cc2-c2cc3ccccc3oc2=O)N1Cc1ccco1 (stereo unspecified)
    -2% | u | u | x | 8% | 5% | u | 25µM*
CC(=O)c1ccc(-n2nncc2-c2ccc([N+](=O)[O-])cc2)cc1
    -5% | x | 9%[46.1 µM] | -8% | -2% | x | 18% | x
Cc1ccccc1-n1nnnc1SCC(=O)NCC1CCCO1 (stereo unspecified)
    -1% | x | 21% | -3% | 1% | x | -1% | x
CCOc1cc(C=NN=C2c3ccccc3-c3ccccc32)ccc1O
    10% | x | u | -1% | x | x | 16% | x
Cc1oc2ncn(CC(C)C)c(=O)c2c1C(=O)NCCCN(C)Cc1ccccc1
    x | -5% | x | -7% | x | x | u | -0.2%
COc1cc(S(=O)(=O)N(C)C)ccc1Br
    -5% | -5% | 20% | 2% | 1% | 0% | 0% | 5.8%
COc1cc2[nH]c(=S)n(-c3ccccc3)c(=O)c2cc1OC
    7% | x | x | -9% | 0% | 11% | x | x
O=C(NC(=O)N1CCN(c2ccc(F)cc2)CC1)c1ccccc1
    5% | -3% | u | 19% | 23% | 1% | -39%[14.3 µM] | 3.0%
CC(=O)OCC1OC(n2c3c(cc(C#N)c2=S)CCCC3)C(OC(C)=O)C(OC(C)=O)C1OC(C)=O (stereo unspecified)
    5% | x | -9% | -13% | x | x | 3% | x
CC1CN(C(=S)SCC(=O)c2ccc(Cl)cc2)CC(C)O1 (stereo unspecified)
    -24% | -6% | 1% | 8% | -7% | 3% | -7% | -8.9%
COC(=O)C1C(=O)NCC1c1ccccc1 (stereo unspecified)
    -4% | -4% | 13%[46.1 µM] | 24% | x | 4% | 7% | 1.2%
CCN(CC)c1nc2ccccc2nc1C(=O)Nc1ccc(C(C)=O)cc1
    x | 8% | x | -22% | x | x | u | -5.1%
CSc1ccccc1C(=O)C1CCCN(Cc2ccncc2)C1 (stereo unspecified)
    6% | x | x | -23% | 1% | -1% | x | x
CN1C(=O)C2(c3ccccc31)N(c1ccccc1)C(=O)CS2(=O)=O (stereo unspecified)
    x | u | x | -14% | x | x | 17%[46.1 µM] | 0.4%

Retrieved by compound from the entries so far:
Results follow in this order: RE007 growth inh | Cruzain inh noDet | Marburg entry inh | 2A StopGo | SARS PLpro yeast | NS1 function inh | Lassa entry inh | Cruzain inh Det
CN1CCN(c2ccc(NC(=O)c3ccc4c(c3)OCCO4)cc2)CC1
    -6% | x | u | 15% | 0% | 5% | -1% | x
O=C1CSC(c2nn(-c3ccccc3)cc2-c2cc3ccccc3oc2=O)N1Cc1ccco1 (stereo unspecified)
    -2% | u | u | x | 8% | 5% | u | 25µM*
CSc1ccccc1C(=O)C1CCCN(Cc2ccncc2)C1 (stereo unspecified)
    6% | x | x | -23% | 1% | -1% | x | x
CC(=O)OCC1OC(n2c3c(cc(C#N)c2=S)CCCC3)C(OC(C)=O)C(OC(C)=O)C1OC(C)=O (stereo unspecified)
    5% | x | -9% | -13% | x | x | 3% | x
CC(=O)Nc1ccc(NS(=O)(=O)c2ccc(C)cc2)c([N+](=O)[O-])c1
    1% | x | -6%[46.1 µM] | -6% | 0% | -2% | 7% | x

Additional entries
Results follow in this order: RE007 growth inh | Cruzain inh noDet | Marburg entry inh | 2A StopGo | SARS PLpro yeast | NS1 function inh | Lassa entry inh | Cruzain inh Det
CCOC(=O)Nc1ccc(S(=O)(=O)Nn2cnnc2)cc1
    5% | -5% | 13% | x | 22µM* | u | 1% | 5.2%
O=c1cc(-c2ccccc2)n2c(SCc3ccc(Cl)cc3)nnc2[nH]1
    x | -5% | x | 12% | x | x | 1%[46.1 µM] | -0.4%
Cc1ccc2nc(Cl)c(C3CC(c4cccs4)=NN3S(C)(=O)=O)cc2c1 (stereo unspecified)
    7% | -12% | 17% | 42%[activator] | 17% | 5% | -2% | -4.5%
CC(C)CCNC(=O)CC1Nc2c3ccccc3nc(=S)n2C1=O (stereo unspecified)
    -8%[3.69 µM] | 7% | 3% | 1% | -1% | 1% | -5% | -0.6%
CC(=O)N1c2nc(C(C)C)nn2C2(CCCCC2)[C@@H]2CCCC[C@@H]21
    x | 0% | -24%[46.1 µM] | -29% | x | x | 18%[46.1 µM] | -0.5%
Cc1c(C(=O)OCC(=O)NCc2ccc3c(c2)OCO3)cccc1[N+](=O)[O-]
    3% | -5% | u | 0% | 9% | 26% | 17% | -6.7%
CCCC(CC)Sc1nc2c([nH]1)c(=S)n(C)c(=O)n2C (stereo unspecified)
    7% | x | u | u | x | x | u | x
COc1ccc(C2C(Oc3ccccc3C)C(=O)N2Cc2ccc(F)cc2)cc1OC (stereo unspecified)
    -5% | 3% | u | u | -9% | 6% | -29% | -14%
Cc1cc(C)n(S(=O)(=O)c2ccccc2)n1
    2% | x | 2%[46.1 µM] | 3% | -3% | 5% | -5% | x
NC(=O)c1ccc(=O)n(C2OC(CO)C(O)C2O)c1 (stereo unspecified)
    17% | x | 15% | -3% | x | x | 22%[46.1 µM] | x
COc1ccccc1C(CNC(=O)c1ccc(-c2ccccc2Cl)o1)N1CCCC1 (stereo unspecified)
    5% | x | u | u | 9% | x | u | x
O=C(NC(=S)Nc1ccccc1F)c1ccc(Br)o1
    -17% | x | x | 83%[activator] | 1% | 6% | x | x
Cc1cccc(C)c1OCCCCCNCCO
    3% | 2% | u | 2% | u | 10% | -2% | 5.1%
COc1ccc(NC(=O)CSc2ncc3c(n2)-c2ccccc2N(Cc2ccc(C)cc2)S3(=O)=O)cc1Cl
    x | -22% | u | 0% | x | x | 8%[46.1 µM] | 4.3%
Cc1ccc(C(=O)N/C(=C\c2cccs2)C(=O)N2CCCCCC2)cc1
    -2% | -9% | 1% | 0% | -4% | 3% | -24% | -1.2%
O=C(CSc1ccc(Br)cc1)N1CCN(C(=O)c2ccco2)CC1
    -10% | x | -14%[46.1 µM] | -12% | 2% | -6% | -1% | x
Cc1ccc(NC(=O)COC(=O)Cc2ccsc2)c(C)c1
    -2% | x | 3%[46.1 µM] | -16% | 0% | -2% | -3% | x
CCCN1CC[C@@H]2c3cc(O)ccc3CC[C@@H]21
    9%[18.4 µM] | 6% | 14%&-14% | -22% | x | -1% | -3% | -3.0%
Fc1ccc(NC(=S)N2CCCCC2)cc1
    -6% | 5% | 6% | 2% | -7% | 16% | 5% | 1.0%
C/C(N)=C(/C#N)C(=O)CSc1ccc2c(c1)OCCO2
    -1% | 3% | u | -11% | -2% | 0% | u | 0.8%
O=S1(=O)[C@H]2C[C@@H]3C=C[C@@]2(CN1Cc1ccc(Cl)cc1)O3
    5% | x | x | -19% | 7% | 16% | x | x
O=C(NCc1ccc2c(c1)OCO2)C1CCCN(S(=O)(=O)c2cccnc2)C1 (stereo unspecified)
    24% | 4% | -7%&-7% | -17% | -5% | -1% | -5% | -1.6%
CCN(CC)CCC(=O)O[C@H]1CC[C@]2(C)C3CC[C@@]4(C)C(CC[C@]4(C)O)C3CC[C@H]2C1 (stereo partly specified)
    -1% | x | 0% | u | -3% | x | 7% | x

Individual results from the list.
For RE007 growth inh, `COc1ccccc1C(CNC(=O)c1ccc(-c2ccccc2Cl)o1)N1CCCC1` (stereo unspecified) shows 5%
For RE007 growth inh, `CCCC(CC)Sc1nc2c([nH]1)c(=S)n(C)c(=O)n2C` (stereo unspecified) shows 7%

Source: PubChem BioAssay
